RE007 growth inh – less growth of the S. pombe RE007 Vpr strain. 360,000 tested, 0.21% active. Potency, µM (series often up to 92.2 µM), for inactives: at the top dose activity change, negative = less growth. AID 651644. S. pombe RE007 Vpr strain, BacTiter-Glo ATP luminescence, 24 h; control for the full effect not named in the record; active = well fitted falling curve with a large enough effect; inconclusive = small, poorly fitted or top-dose-only effect; inactive = no such curve, though single readings can be large or run the other way;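 also: % is scaled to controls: 0 for no effect and ±100 for the full control effect; nearly all actives have a fitted effect of over 50% in size; the assay follows cell death caused by Vpr and the record does not say whether a fall means rescue or toxicity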
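Fission yeast RE007 carrying one integrated HIV-1 vpr copy, seeded at OD 0.01 in PMG+AL medium with 23 nL pinned compound. Grown 24 h at 30 degrees; viability read by BacTiter-Glo luminescence after 5 min.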
NS1 inh – inhibitors of influenza NS1 protein function; S. cerevisiae slowed by influenza A NS1, growth recovery by OD600; Potency, µM (titrated, usually from 46.1 µM), for the others: at the highest dose activity, positive = more growth; 270,000 tested, 0.4% active; AID 2326; also: actives are rising curves; nearly all actives have a fitted effect of over 50% in size
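In this qHTS, NS1 from influenza A is expressed in budding yeast, where it slows growth. Cells are switched from glucose to 2% galactose medium (pH 6.0, -URA), treated with compound, and growth recovery is read at OD600.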
SARS PLpro yeast – inhibitors of SARS-CoV papain-like protease in yeast | 330,000 tested, 0.19% active | S. cerevisiae expressing SARS-CoV PLpro, growth rescue; control for the full effect not named in the record | Potency, µM (top dose mostly 32.9 µM), inactives show top-dose activity, positive = growth rescue; also: 0% is about no effect; nearly all actives have a fitted effect of over 55% in size; growth read by luminescence after 48 h
Lassa entry inh – blocks Lassa virus binding to or entry into cells | 300,000 tested, 1.2% active | Potency, µM (titrated, usually from 37.9 µM), for inactives: at the top dose activity change, negative = inhibition, usual class: inhibitors | AID 540256 | Lassa virus pseudotype entry inhibition, cell reporter; control for the full effect not named in the record; active means well fitted inhibition curve with a large enough effect; inconclusive means small, poorly fitted or top-dose-only effect, or effect the other way; inactive means flat fitted curve, though single readings scatter; tested in HEK293 cells; also: % is scaled to controls: 0 for no effect and ±100 for the full control effect; nearly all actives have a fitted effect of over 50% in size; luciferase read-out
MARV entry inh – Marburg virus entry inhibition; Marburg virus pseudotyped entry inhibition, cell reporter; control for the full effect not named in the record; about a third of the inactives were read at about 46 µM; Potency, µM (doses to about 37.8 µM), for inactives: at the highest dose activity change, negative = inhibition, usual class: inhibitors; 300,000 tested, 1.8% active; active = well fitted inhibition curve with a large enough effect; inconclusive = small, poorly fitted or top-dose-only effect, or effect the other way; inactive = flat fitted curve, though single readings scatter; tested in HEK293 cells; about a fifth of its hits are not listed in these tables; also: % is scaled to controls: 0 for no effect and ±100 for the full control effect; luciferase read-out
Cruzain noTriton – cruzain (T. cruzi) inhibition without detergent; P25779; AID 1476; 200,000 tested, 2.3% active; purified cruzain, Z-FR-AMC fluorescence, no detergent; Potency, µM, inactives show max response, negative = inhibition, hits mostly inhibitors; active = well fitted curve in the direction sought with a large enough effect; inconclusive = small, poorly fitted or top-dose-only effect, or another doubt; inactive = no such curve, though single readings can be large; an effect the other way counts as inactive or inconclusive;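 also: plate controls were enzyme without inhibitor for no effect and buffer without enzyme for full effect; nearly all actives have a fitted effect of over 40% in size; top concentration of the series not given in the record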
Target sequence (P25779 123-467 limits assumed): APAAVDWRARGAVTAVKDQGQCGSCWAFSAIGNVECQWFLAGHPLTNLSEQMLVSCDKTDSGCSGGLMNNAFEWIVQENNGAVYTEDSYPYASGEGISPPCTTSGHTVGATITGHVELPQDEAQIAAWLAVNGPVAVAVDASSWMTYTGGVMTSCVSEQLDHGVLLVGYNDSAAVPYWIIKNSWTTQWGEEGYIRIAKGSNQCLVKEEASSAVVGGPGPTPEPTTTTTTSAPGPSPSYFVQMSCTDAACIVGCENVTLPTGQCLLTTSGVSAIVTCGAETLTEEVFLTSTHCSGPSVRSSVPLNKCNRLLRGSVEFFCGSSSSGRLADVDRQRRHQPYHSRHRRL
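Purified cruzain at 1.5 nM, pre-incubated 15 min with compound at room temperature in 100 mM sodium acetate pH 5.5, 5 mM DTT, 0.00005% Triton X-100. Reaction started with 2 uM Z-FR-AMC; AMC fluorescence increase over 60 s gives rate.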
StopGo reporter – lowers the luciferase signal of an FMDV 2A StopGo reporter | human cells with a luciferase reporter of 2A StopGo recoding; control for the full effect not named in the record | AID 1159524 | Potency, µM (top dose mostly 57.9 µM), without a hit: at the highest dose signal change, negative = less light | 410,000 tested, 1.2% active; active = well fitted falling curve with a large enough effect; inconclusive = small, poorly fitted or top-dose-only effect; inactive = no such curve, though single readings can be large or run the other way; tested in HEK293T cells; also: % is scaled to controls: 0 for no effect and ±100 for the full control effect; nearly all actives have a fitted effect of over 45% in size; luciferase light after 4 h
Cruzain Triton – inhibitors of Trypanosoma cruzi cruzain with detergent. P25779. purified cruzain, Z-FR-AMC fluorescence, 0.01% Triton. Potency, µM, without a hit: max response, negative = inhibition, actives largely listed as inhibitors. 200,000 tested, 0.43% active. AID 1478; active = well fitted curve in the direction sought with a large enough effect; inconclusive = small, poorly fitted or top-dose-only effect, or another doubt; inactive = no such curve, though single readings can be large; an effect the other way counts as inactive or inconclusive;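 also: plate controls were neutral wells for no effect and buffer without enzyme for full effect; nearly all actives have a fitted effect of over 40% in size; top concentration of the series not given in the record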
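Enzyme 1.5 nM, Z-FR-AMC 2 uM, NaOAc 100 mM pH 5.5, DTT 5 mM, Triton X-100 0.01%; 15 min RT compound preincubation; kinetic ex360/em450, 60 s delta.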
Active calls of the source: *; ? = inconclusive; . = not tested or not shown; & = joins results of further samples; [ ] = remark or other dose. Unless noted, calls follow the shape of the dose curve; as a rule, active means well fitted rising curve with a large enough effect; inconclusive means small, poorly fitted or top-dose-only effect; inactive means no such curve, though single readings can be large or run the other way. Potency is read from the fitted curve at half-maximal effect. The order is random, and some 4.7% of all compounds hit somewhere here.

SMILES	RE007 growth inh	NS1 inh	SARS PLpro yeast	Lassa entry inh	MARV entry inh	Cruzain noTriton	StopGo reporter	Cruzain Triton
CCc1nnc(NC(=O)CSc2nnc(C3CC3)n2C)s1	22%	4%	3%	1%	-6%	.	-1%	.
Nc1cc(Oc2ccc(F)cc2F)cc([N+](=O)[O-])c1	-3%	.	-5%	-3%[46.1 µM]	-10%[46.1 µM]	.	-12%	.
Cn1c(NCc2cc(Br)ccc2O)nc2ccccc21	-7%	-36%	-7%	?	-6%	-6%	-5%	-9.0%
CC(C)C(C)NC(=O)Cn1cnc2c(oc3ccccc32)c1=O (stereo not given)	2%	-14%	2%	26%	?	.	52%[activator]	.
Cc1ccsc1C(=O)OCC(=O)NCc1ccc2c(c1)OCO2	-10%	3%	8%	-12%	-18%	-3%	47%[activator]	6.5%
CCOC(=O)c1cnc(-n2[nH]c(C)cc2=O)[nH]c1=O	-5%	.	24%	7%[46.1 µM]	2%[46.1 µM]	.	3%	.
CCN(CC)C(=O)CSc1nc(N)c(C(=O)Nc2ccc(OC)cc2)s1	1%	6%	-10%	-4%	1%	-9%	-7%	-6.5%
Cc1cccc2nc(-c3cccc(NC(=O)Cc4ccccc4)c3)cn12	4%	-39%	-6%	-10%	?	?	27%	-3.4%
COc1ccc(C(=O)n2cnc3ccccc32)cc1[N+](=O)[O-]	-6%	11%	1%	.	.	.	5%	.
Cc1coc2c(C)c3oc(=O)c(CCC(=O)NCCc4ccccc4F)c(C)c3cc12	.	.	.	15%[46.1 µM]	5%[46.1 µM]	4%	-19%	-3.1%
O=C(c1cc(-c2ccccc2Cl)on1)N1CCN(C(=O)c2ccco2)CC1	-19%	-17%	-6%	8%	1%	6%	4%	8.1%
CCOC(=O)N1CCC(NC(=O)Cn2cc3c(n2)CCCC3)CC1	5%	-18%	3%	.	.	4%	-21%	1.6%
Nc1ccccc1C(=O)N(Cc1ccccc1)Cc1ccccc1	22%	-1%	8%	13%	2%	0%	2%	-5.8%
COc1ccccc1CNC(=O)CCCOc1cc(=O)n(C)c2ccccc12	-23%	-11%	-1%	3%	-13%	-1%	32%[activator]	5.4%
COC(=O)c1cc2oc3ccccc3c2n1CC(=O)Nc1ccc(OC)c(OC)c1OC	.	.	.	.	?	?	-5%	-4.4%
COc1ccc(CN(Cc2cc3cc4c(cc3[nH]c2=O)OCO4)C(=O)NC2CCCCC2)cc1	-15%	?	-1%	-21%	?	5%	-18%	-9.7%
CCOc1ccc2c(c1)c1nnc(SCC(=O)NC3CC3)nc1n2C	-9%	4%	0%	?	-15%[46.1 µM]	.	2%	.
O=C(Nc1ccccc1)/C(=C/c1ccc(F)cc1)NC(=O)c1ccco1	-1%	8%	4%	-3%	0%[46.1 µM]	.	3%	.
COc1cccc(CN(CC(=O)NC2CCCCC2)C(=O)c2csnn2)c1	25%	8%	-1%	?	2%[46.1 µM]	.	-7%	.
Cc1ccc(N(C)C(=O)c2cc(S(=O)(=O)N3CCCC3)cn2C)cc1	-11%	13%	-6%	.	.	.	0%	.
CCOc1ccc(-n2c(=O)[nH]cc(C(=O)N3CCc4ccccc43)c2=O)cc1	6%	-3%	-1%	-16%	4%[46.1 µM]	-1%	-14%	3.6%
CSc1nnc(C)c(/C=C/NOCc2cccc(F)c2)n1	-10%	0%	-1%	?	3%	.	0%	.
O=C(NCC(c1ccco1)N1CCN(c2ccc(F)cc2)CC1)c1cccs1 (stereo not given)	-8%	.	3%	-22%	?	.	-12%	.
O=C(CCCOc1ccccc1)Nc1cccc(S(=O)(=O)N2CCOCC2)c1	-9%	.	12%	1%	8%	.	4%	.
CCN(CC)Cc1c(C(=O)N/N=C/c2ccc(OCc3ccccc3C)cc2)nnn1-c1nonc1N	-8%	-17%	-2%	.	.	.	-16%	.

(list continues)
SMILES	RE007 growth inh	NS1 inh	SARS PLpro yeast	Lassa entry inh	MARV entry inh	Cruzain noTriton	StopGo reporter	Cruzain Triton
CCOC(=O)c1cnc2nc(NCc3cccc(Br)c3)[nH]n2c1=O	.	.	.	-1%[46.1 µM]	0%[46.1 µM]	-3%	-15%	-2.6%
O=C1CCC(c2ccccc2)=NN1Cc1c(F)cccc1Cl	-1%	-3%	-2%	-2%	?	.	-6%	.
CN(CC(=O)Nc1ccc(F)c(F)c1)S(=O)(=O)c1cccs1	-5%	-8%	-1%	-5%	12%[46.1 µM]	.	16%	.
CCN(CC)c1ccc2c(-c3ccc(S(=O)(=O)O)cc3S(=O)(=O)[O-])c3ccc(=[N+](CC)CC)cc-3oc2c1	?	10%	-4%	16%	-12%	.	?	.
COc1ccc2c(C)cc(SCC#N)nc2c1	3%	-106%	-13%	6%	-14%	0%	5%	-2.9%
CC(=O)Nc1ccc(C(=O)N(C2=NC(C)CS2)c2ccc(Cl)cc2)cc1 (stereo not given)	0%	7%	-5%	-7%	-13%	.	2%	.
CCOC(=O)c1c(C)n(C)c2ccc(O)c(CN3CCC(C)CC3)c12	28%	-13%	-3%	?	11µM*	10%	-23%	-1.0%
CC(=O)Nc1ccc(S(=O)(=O)C(C#N)c2nc3ccccc3nc2NCCO)cc1 (stereo not given)	5%	-4%	0%	.	.	.	22%	.
O=S(=O)(c1cccc(C(F)(F)F)c1)c1ccc(O)cn1	-21%	.	.	1%	12%	.	-9%	.
CCC(=O)Nc1ccc(C(=O)CSc2nc(N)cc(N)n2)cc1	2%	1%	2%	.	.	.	-7%	.
CCc1ccc(Nc2nnc(SC(C)C(=O)NC3CC3)s2)cc1 (stereo not given)	-6%	.	3%	-19%	-31%	.	-6%	.
O=C(/C=C/c1cccnc1)c1ccc(O)cc1	-2%	3%	0%	18%[46.1 µM]	?	.	0%	.
CS(=O)(=O)N(Cc1ccccc1Cl)c1ccc(C(=O)NCc2ccccn2)cc1	-1%	-12%	14%	-7%	23%	3%	-19%	1.1%
Cc1ccc(-c2noc(-c3c(C)noc3C)n2)cc1	-3%	3%	0%	.	.	.	52%[activator]	.
O=C1C(Cl)=C(NCC2CCCO2)C(=O)N1C1CCCCC1 (stereo not given)	-11%	-7%	4%	5%	1%	-3%	-9%	-7.2%
COc1ccc(CCNC(=O)CSc2ccc3ccccc3c2)cc1OC	1%	-4%	-1%	?	24%	7%	2%	-2.6%
O=C(c1sc2ccccc2c1Cl)N1CCN(c2ccccc2F)CC1	22%	-3%	-43%	6%	7%	1%	0%	-7.8%
COc1ccc(C(=S)N2CCCCC2)cc1Br	-3%	-1%	0%	-1%	20%[46.1 µM]	.	39%[activator]	.
CC(C)(C)c1ccc(Cn2nnc3c(=O)[nH]c(C4CCCN(C(=O)c5cccs5)C4)nc32)cc1 (stereo not given)	-19%	-3%	-4%	-24%	-28%	.	-23%	.
Cc1cccc(N2CCN(C(=O)Cn3ncc4c3-c3ccccc3OC4)CC2)c1C	.	.	.	.	-5%[46.1 µM]	?	?	-6.5%
CCN(C(=O)CSc1nc2ccccc2nc1Cc1cccc(OC)c1)c1cccc(C)c1	.	.	.	7.1µM*	.	-6%	-24%	2.7%
COc1cc(C(=O)N2CCN(CCc3ccncc3)CC2)cc(OC)c1OC	.	.	.	-1%[46.1 µM]	-1%[46.1 µM]	-2%	-12%	-0.5%
O=C(CN(Cc1ccccc1)S(=O)(=O)c1ccccc1)N/N=C/c1ccc([N+](=O)[O-])cc1	7%	-14%	?	?	?	-29%	0%	-8.9%
CCOc1ccc(OCCN2C(=O)NC(Cc3c[nH]c4ccccc34)C2=O)cc1 (stereo not given)	10%	-7%	-2%	?	18%	4%	?	-3.2%
CCCCN(C)CCCNC(=O)c1cc(=O)[nH]c2ccc(S(=O)(=O)N3CCCCC3C)cc12 (stereo not given)	0%	.	1%	0%	2%	.	-10%	.

As entered above:
Reading of `O=C(/C=C/c1cccnc1)c1ccc(O)cc1` in RE007 growth inh: -2%
Reading of `CN(CC(=O)Nc1ccc(F)c(F)c1)S(=O)(=O)c1cccs1` in StopGo reporter: 16%

Additional results
SMILES	RE007 growth inh	NS1 inh	SARS PLpro yeast	Lassa entry inh	MARV entry inh	Cruzain noTriton	StopGo reporter	Cruzain Triton
COc1ccc2c(c1)C(C)CC(C)(C)N2C(=O)Nc1ccccc1 (stereo not given)	-6%	4%	2%	28%	?	.	32%[activator]	.
COc1ccc(CC(=O)n2[nH]c(=O)c3ccccc3c2=O)cc1OC	3%	2%	0%	3%	21%[46.1 µM]	.	33%[activator]	.
O=c1cc(CN2CCOCC2)c2c(ccc3ccccc32)o1	5%	-14%	1%	-17%	-20%&-20%	0%	5%	-2.2%
COc1cccc(CCC(=O)N2CCC(n3nccc3NC(=O)CC(C)C)CC2)c1	-8%	11%	14%	.	.	.	-5%	.
COc1ccc(N2C3=C(CC4=C2CCCC4=O)C(=O)CCC3)cc1	-10%	25%	4%	-16%	-4%	?	?	-3.0%
NC(=O)C1(Nc2ccc([N+](=O)[O-])cc2)CCCC1	-6%	.	.	-7%[46.1 µM]	-12%[46.1 µM]	.	27%	.
N#Cc1c(-c2ccccc2)ccn(Cc2ccc(Cl)cc2)c1=O	0%	-5%	-22%	-12%	7%	12%	-15%	3.0%
CN(C(=O)c1ccc(F)cc1)c1ccc(OCC(=O)Nc2ccccc2C(=O)O)cc1	15%	.	6%	-3%	-3%	.	-6%	.
COc1cccc(-c2nc(CS(=O)(=O)CC(=O)Nc3cc(OC)ccc3OC)c(C)o2)c1	8%	-1%	?	.	.	.	-10%	.
C=CCn1c(SCC(=O)c2c(N)n(CCC)c(=O)n(C)c2=O)nnc1-c1ccncc1	2%	.	-1%	?	2%[46.1 µM]	.	-16%	.
Cc1ccc2c(c1)NC(C(C)(C)C)CO2 (stereo not given)	-18%	-2%	3%	-1%	0%	-4%	0%	1.7%
CCn1nc(C)c(NC(=O)CCCSc2nc(-c3ccco3)cc(C(F)(F)F)n2)c1C	12%	3%	-5%	?	?	?	?	-2.2%
CCc1nnc(NS(=O)(=O)c2ccc(NC(=O)c3ccc(S(=O)(=O)N(CC)CC)cc3)cc2)s1	12%	16%	1%	?	10%[46.1 µM]	.	2%	.
